HCMV UL50-53 inh = cytomegalovirus nuclear egress complex inhibition | HTRF UL50-UL53 interaction, normalized percent inhibition | inhibition, % (no concentration beside the values) | 190,000 tested, 0.15% active | AID 1918969;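 active means both replicates at 50% or more, plus weaker picks with an unusually low signal ratio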;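 further: stock transfer was 100 nL into about 20 µL; 0% = negative control wells and 100% = wells with untagged competitor protein; inactives centre near -12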
Sa growth inh = blocks Staphylococcus aureus growth | relative growth, % (test concentration not listed) | AID 720641 | 170,000 tested, 0.53% active | S. aureus RN4220 growth, OD600, 20 h, 42 °C; hits give low values;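 active means growth at 42 °C up to 50% and 20 or more points under that at 30 °C, or under 10% at both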;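 further: 300 nL library stock went into each well; scaled to the means of positive and negative controls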
GIV-Gai inh = inhibitors of GIV GBA-motif binding to rat Galpha-i3; P08753; Galpha-i3/FITC-GIV peptide fluorescence polarization, 90 min; hits give low values; scaled: aluminum fluoride 0%, vehicle 100%; percent of control (FP), % (concentration not given with the values); 210,000 tested, 0.42% active;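 active means replicate mean at 85% of control or lower, very high polarization wells dropped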;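 further: wells of about 15 µL received 100 nL stock; the first replicate is given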
Target sequence (P08753 whole entry, looked up): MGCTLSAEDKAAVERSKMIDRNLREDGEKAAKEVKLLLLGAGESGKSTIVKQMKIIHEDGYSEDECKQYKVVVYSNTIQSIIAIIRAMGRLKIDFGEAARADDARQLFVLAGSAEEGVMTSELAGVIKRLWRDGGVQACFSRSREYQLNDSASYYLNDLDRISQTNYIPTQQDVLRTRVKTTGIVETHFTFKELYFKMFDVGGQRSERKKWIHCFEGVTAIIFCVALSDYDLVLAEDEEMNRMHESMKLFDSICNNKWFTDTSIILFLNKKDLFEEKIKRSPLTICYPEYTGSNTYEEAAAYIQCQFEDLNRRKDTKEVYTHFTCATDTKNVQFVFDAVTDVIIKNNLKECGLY
Sa growth inh second temp = recorded beside Sa growth inh, whose call it bears; relative growth, %; measured here: growth at 30 °C;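 optical density after 20 h as mean of two plates; 100% = untreated growth and lower means inhibition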
The depositor's hits bear a star; x = not tested or not shown. Compounds as they come; any-hit rate near 0.82%.

SMILES	HCMV UL50-53 inh	Sa growth inh	Sa growth inh second temp	GIV-Gai inh
CCOC(=O)c1oc2ccccc2c1NC(=O)COC(=O)CC1Sc2ccccc2NC1=O (stereo not drawn)	-35	80	78	x
Cc1ccc2nc(NC(=O)CSc3ncc(C(=O)Nc4ccccc4)c(=O)n3C)sc2c1	x	105	88	93
CCS(=O)(=O)c1ccc(-c2ccc(NC(=O)c3cccc(OC)c3)cc2)nn1	-15	x	x	98
Cc1cccc(CN2CCN(C(=O)CC(C)C)CC2)c1	-8	89	78	x
COc1cc2c(cc1OC)C(CC(=O)Nc1ccccc1)C(=O)NN=C2C (stereo not drawn)	9	109	108	100
COc1cccc(N2C(=O)N(CC(=O)NCc3cccc(OC)c3OC)c3ccccc3S2(=O)=O)c1	x	125	72	105
O=S(=O)(c1ccc(Oc2ncnc3sc4c(c23)CCC4)cc1)N1CCOCC1	5	97	94	x
O=C(c1ccc(CSc2cccc3cccnc23)cc1)N1CCOCC1	-45	99	83	x
N#Cc1cnn(-c2ncnc3c2cnn3-c2ccccc2)c1N	-26	87	85	106
COc1ccccc1N(CC(=O)N1CCC(C)CC1)S(=O)(=O)c1ccc(C)cc1	29	102	94	106
CCOc1ccc(NC(=O)CCn2c(=O)sc3ccccc32)cc1	-18	94	79	99
Cc1ccc(OCC(=O)Nc2cccc(-c3nc4ccccc4o3)c2C)cc1C	-8	111	100	108
COc1ccc(-n2c3c(cc(-c4ncnn4-c4ccccc4)c2=O)C(=O)CC(C)(C)C3)cc1	-10	x	x	104
CNS(=O)(=O)c1cc(Br)ccc1I	9	102	94	101
NS(=O)(=O)c1ccc(CCNC(=O)CCCc2nnc3c(=O)n(-c4cccc(F)c4)ccn23)cc1	-29	x	x	109
CCSCCOC(=O)C1=C(C)NC2=C(C(=O)CC(c3cccs3)C2)C1c1ccc2c(c1)OCO2 (stereo not drawn)	-5	x	x	103
CCCN1C(=O)/C(=c2\sc3n(c2=O)C(c2cccs2)C(C(=O)OCC)=C(C)N=3)c2ccccc21 (stereo not drawn)	-8	x	x	107
CCOc1ccc(C(=O)N2CCc3cc(OC)c(OC)cc3C2)cc1	x	117	68	102
CCOC(=O)c1nc2cc(C)c(C)cc2nc1NCc1cc(OC)ccc1OC	4	x	x	119
CCC(Oc1ccccc1)C(=O)NCc1ccccn1 (stereo not drawn)	-11	108	83	x
CCCCN1C=C(OC(=O)c2ccccc2OC)c2ccccc2S1(=O)=O	-12	x	x	98
NC(=O)Cn1c(=O)n(CCCCCC(=O)NCc2ccc(F)cc2)c(=O)c2sccc21	-6	96	85	100
Cc1ccccc1NC(=O)c1cnc(Nc2nc3ccccc3s2)nc1C	1	82	90	100
CCOc1ccc(S(=O)(=O)NCC(c2ccco2)S(=O)(=O)c2ccc(C)cc2)cc1 (stereo not drawn)	x	125	91	103
O=C(O)CN1CCCC1=O	-15	127	92	102
Cc1cc2c(cn1)C(=Nc1ccccc1C)c1ccccc1-2	-148	99	41	x
COc1ccc(Cn2c(=O)c3oc4ccccc4c3n(CC(=O)Nc3cc(C)cc(C)c3)c2=O)cc1	x	77	90	103
CCCCCOC(=O)C1=C(C)N(C)C(=O)NC1c1cc(Br)c(O)c(OC)c1 (stereo not drawn)	-13	x	x	104
COC(=O)c1ccc(C(=O)OC)c(NC(=O)c2c(-c3ccc(OC)cc3)oc3ccc(OC)cc23)c1	-6	x	x	103
NC(N)=N/N=C/c1cccs1	-70	86	82	103

As a working copy, some entries already given.
SMILES	HCMV UL50-53 inh	Sa growth inh	Sa growth inh second temp	GIV-Gai inh
CCOC(=O)c1oc2ccccc2c1NC(=O)COC(=O)CC1Sc2ccccc2NC1=O (stereo not drawn)	-35	80	78	x
Cc1ccc2nc(NC(=O)CSc3ncc(C(=O)Nc4ccccc4)c(=O)n3C)sc2c1	x	105	88	93
CCS(=O)(=O)c1ccc(-c2ccc(NC(=O)c3cccc(OC)c3)cc2)nn1	-15	x	x	98
Cc1cccc(CN2CCN(C(=O)CC(C)C)CC2)c1	-8	89	78	x
COc1cc2c(cc1OC)C(CC(=O)Nc1ccccc1)C(=O)NN=C2C (stereo not drawn)	9	109	108	100
COc1cccc(N2C(=O)N(CC(=O)NCc3cccc(OC)c3OC)c3ccccc3S2(=O)=O)c1	x	125	72	105
O=S(=O)(c1ccc(Oc2ncnc3sc4c(c23)CCC4)cc1)N1CCOCC1	5	97	94	x
O=C(c1ccc(CSc2cccc3cccnc23)cc1)N1CCOCC1	-45	99	83	x
N#Cc1cnn(-c2ncnc3c2cnn3-c2ccccc2)c1N	-26	87	85	106
COc1ccccc1N(CC(=O)N1CCC(C)CC1)S(=O)(=O)c1ccc(C)cc1	29	102	94	106
CCOc1ccc(NC(=O)CCn2c(=O)sc3ccccc32)cc1	-18	94	79	99
Cc1ccc(OCC(=O)Nc2cccc(-c3nc4ccccc4o3)c2C)cc1C	-8	111	100	108
COc1ccc(-n2c3c(cc(-c4ncnn4-c4ccccc4)c2=O)C(=O)CC(C)(C)C3)cc1	-10	x	x	104
CNS(=O)(=O)c1cc(Br)ccc1I	9	102	94	101
NS(=O)(=O)c1ccc(CCNC(=O)CCCc2nnc3c(=O)n(-c4cccc(F)c4)ccn23)cc1	-29	x	x	109
CCSCCOC(=O)C1=C(C)NC2=C(C(=O)CC(c3cccs3)C2)C1c1ccc2c(c1)OCO2 (stereo not drawn)	-5	x	x	103
CCCN1C(=O)/C(=c2\sc3n(c2=O)C(c2cccs2)C(C(=O)OCC)=C(C)N=3)c2ccccc21 (stereo not drawn)	-8	x	x	107
CCOc1ccc(C(=O)N2CCc3cc(OC)c(OC)cc3C2)cc1	x	117	68	102
CCOC(=O)c1nc2cc(C)c(C)cc2nc1NCc1cc(OC)ccc1OC	4	x	x	119
CCC(Oc1ccccc1)C(=O)NCc1ccccn1 (stereo not drawn)	-11	108	83	x
CCCCN1C=C(OC(=O)c2ccccc2OC)c2ccccc2S1(=O)=O	-12	x	x	98
NC(=O)Cn1c(=O)n(CCCCCC(=O)NCc2ccc(F)cc2)c(=O)c2sccc21	-6	96	85	100
Cc1ccccc1NC(=O)c1cnc(Nc2nc3ccccc3s2)nc1C	1	82	90	100
CCOc1ccc(S(=O)(=O)NCC(c2ccco2)S(=O)(=O)c2ccc(C)cc2)cc1 (stereo not drawn)	x	125	91	103
O=C(O)CN1CCCC1=O	-15	127	92	102
Cc1cc2c(cn1)C(=Nc1ccccc1C)c1ccccc1-2	-148	99	41	x

(listing goes on)
SMILES	HCMV UL50-53 inh	Sa growth inh	Sa growth inh second temp	GIV-Gai inh
COc1ccccc1CN1C(=O)C(=O)c2cccc(C)c21	-2	106	88	106
O=C(CCCn1sc2ccccc2c1=O)NC1CCCC1	x	81	88	96
COc1ccc(OC)c(S(=O)(=O)N(C)Cc2ccccc2)c1	-11	96	56	100
Cc1cc2nn(-c3ccc(F)cc3)nc2cc1NC(=O)c1cc(Cl)ccc1Cl	4	99	104	112
C1=CCC(CNCc2ccc3c(c2)OCO3)CC1 (stereo not drawn)	-18	99	83	105
O=C(CSc1nc(-c2ccccc2)nc2cc(=O)[nH]n12)NCC1CCCO1 (stereo not drawn)	-12	x	x	93
O=C(Cc1ccc(Cl)cc1)Nc1cccc(-c2ccc(N3CCOCC3)nn2)c1	-19	84	80	106
COC(=O)c1ccc(NCC(=O)c2ccccc2)cc1	-15	116	62	105
Cn1cnc(S(=O)(=O)NCC2CCN(C(=O)OC(C)(C)C)CC2)c1	-29	104	86	103
COc1ccc2nc(N(Cc3cccnc3)C(C)=O)sc2c1	x	115	88	101
Cc1ccc(Cl)cc1N1CCN(C(=O)C2(c3ccccc3)CC2)CC1	-30	72	93	x
Cc1cc(C(=O)Nc2cc(C(F)(F)F)ccc2N2CCOCC2)no1	-21	107	87	101
O=C(/C=C/c1cccc(Oc2ccccc2)c1)N1CCOCC1	-9	122	85	x
Cc1ccccc1CNC(=O)Cc1ccc(NC(=O)N2CCCCc3ccccc32)cc1	x	87	92	101
CCOC(=O)C1CCCCN1C(=O)c1c(SC)nsc1SC (stereo not drawn)	-6	105	89	99
NC(CCc1nc2ccccc2[nH]1)C(=O)O (stereo not drawn)	-43	88	92	99
CCCCS(=O)c1sc2nc3c(cc2c1N)CCCC3 (stereo not drawn)	-56	81	56	106
O=C(CCn1c(=O)oc2ccccc21)Sc1ccc(C(F)(F)F)cc1	-32	120	92	109
COc1ccc(N2CCN(C(=O)CSc3nnc4c5ccccc5n(CC(=O)O)c4n3)CC2)cc1	-64	95	75	100
Oc1ccccc1/C=N/c1nc2ccccc2[nH]1	-17	95	101	99
COc1cc(Cl)c(C)cc1NC(=O)CC1Oc2ccccc2NC1=O (stereo not drawn)	-17	101	72	99
Cn1cc(C(=O)N2CCN(Cc3ccccc3)CC2)c2c3ccccc3n(C)c2c1=O	-32	86	78	101
c1ccc2cc(-c3csnn3)ccc2c1	-28	x	x	103
CC(C)(C)c1ccc(OCC(=O)N(Cc2ccccc2)C2CCS(=O)(=O)C2)cc1 (stereo not drawn)	-17	x	x	102
CCSC1=NC2(CCNCC2)N=C1c1ccc(OC)cc1	-36	96	84	107
CCOC(=O)n1c(CC#N)nc2ccccc21	-17	80	67	x
CC1CCc2c(sc3ncn(-n4cccc4)c(=O)c23)C1 (stereo not drawn)	-8	100	90	x
Cc1cc(C)n(-c2nncn2/N=C/c2ccc(N3CCCCC3)s2)n1	-70	88	93	x
Cc1ccccc1CSc1ncc(C#N)c(N)n1	-30	95	88	121
Cc1noc(C)c1S(=O)(=O)NCC1COc2ccccc2O1 (stereo not drawn)	27	104	93	107
CCCCCn1c(CNC(=O)c2ccccc2)nc2ccccc21	-4	97	97	108
Cc1ccsc1C(=O)OCC(=O)Nc1ccc2[nH]c(=O)[nH]c2c1	-10	119	86	x
COc1cc(OC)cc(C(=O)N(C)C2(c3ccccc3Cl)CCCCC2=O)c1 (stereo not drawn)	-17	125	91	x
O=C(CCNS(=O)(=O)c1cccc2nsnc12)NCc1ccccc1	-136	115	86	102
CCCSCCCNC(=O)CN1C(=O)CCn2nc(-c3cn(C)c4ccccc34)cc21	x	109	88	106
CN(C(=O)c1cnccc1C(F)(F)F)c1nc2cc(Cl)ccc2s1	3	116	58	106
CSC(=S)n1c2ccccc2c2ccccc21	-21	68	83	x
CCOC(=O)/C(C#N)=C1/C=CN(C)C=N1	x	91	88	102
Cc1ccc2c(=O)cc(C(=O)Nc3ccc(S(=O)(=O)N4CCCCC4C)cc3)oc2c1C (stereo not drawn)	-11	108	90	97
Cc1ccc2oc(=O)c3cc(C(=O)NCc4ccc(Cl)cc4)sc3c2c1	-33	102	91	103
COc1ccccc1NC(=O)CSc1nnc2c3ccccc3n(C)c2n1	x	102	90	97
CCCCN=Cc1c(O)n(Cc2ccccc2)c(=O)[nH]c1=O	-11	90	105	98
CCOc1ncnc2c1sc1nc3c(cc12)COC(C)(C)C3	x	111	79	107
CC(=O)NC1C(Sc2ccccc2)OC(CO)C(O)C1O (stereo not drawn)	-27	79	80	98
COc1ccccc1-c1noc(CCC(=O)Nc2cc(C(F)(F)F)ccc2Cl)n1	-30	109	106	112

Two records drawn at random from those above, as already listed:
SMILES	HCMV UL50-53 inh	Sa growth inh	Sa growth inh second temp	GIV-Gai inh
Cc1ccsc1C(=O)OCC(=O)Nc1ccc2[nH]c(=O)[nH]c2c1	-10	119	86	x
Cc1ccc2c(=O)cc(C(=O)Nc3ccc(S(=O)(=O)N4CCCCC4C)cc3)oc2c1C (stereo not drawn)	-11	108	90	97

Next section
SMILES	HCMV UL50-53 inh	Sa growth inh	Sa growth inh second temp	GIV-Gai inh
O=c1oc2ccccc2c(O)c1C=Nc1ccccc1	-14	95	91	107
CC(CNC(=O)CCS(=O)(=O)c1ccc2c(c1)NC(=O)CO2)c1ccccc1 (stereo not drawn)	1	x	x	104
CCC(C)NC(=O)c1cc2n(n1)CCCN(Cc1ccc(C)cc1)C2=O (stereo not drawn)	x	86	92	102
Cn1cc(C(=O)O)c(=O)c2ccccc21	-10	106	98	104
O=C(NCC1COc2ccccc2O1)C1CCCN(C(=O)c2ccc(Cl)cc2)C1 (stereo not drawn)	-27	89	91	x
CCOC(=O)Cc1nn[nH]n1	-12	97	84	x
CCOC(=O)c1c(NC(=S)N2CCOCC2)sc(C)c1C	-11	105	88	102
CCOC(=O)C1CCCN(C(=O)c2ccc3c(c2)N(Cc2ccccc2)C(=O)c2ccccc2S3(=O)=O)C1 (stereo not drawn)	-6	105	80	108
CCc1ccc(-c2nc(CSCC(=O)NCCc3ccccc3)c(C)o2)cc1	x	114	79	97
O=C(Cc1cccc2ccccc12)NCC1CCCO1 (stereo not drawn)	-4	121	87	x
Cc1ccccc1NC(=O)C1CCN(C(=O)c2cnn(-c3ccccc3)c2-n2cccc2)CC1	-10	96	83	96
O=C(/C=C/c1ccc2c(c1)OCO2)Nc1ncc(S(=O)(=O)c2ccc([N+](=O)[O-])cc2)s1	-51	x	x	100
